Source: PubChem BioAssay
Calb FLC: C. albicans growth modulation with fluconazole. growth inhibition, % (test concentration not listed). C. albicans CaCi-2 (fluconazole-resistant clinical isolate) + fluconazole, Alamar Blue growth, 48 h. hit rate 0.57% among 300,000;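 active = most replicates above 75%; inconclusive = exactly half above 75%; inactive = most below 75%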;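 also: all wells also contain fluconazole at 8 µg/ml as a sub-toxic cotreatment; 0% = median of DMSO wells and 100% = median of geldanamycin control wells; wells of about 8 µL received 7.5 nL stock; the first replicate is given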
B2AR ag: human beta-2 adrenergic receptor agonism by FAP; P07550; Am2.2-beta2AR cells, FAP receptor internalization, flow cytometry; reference of the scale not given here; response, % (concentration not given with the values); hit rate 0.43% among 340,000; AID 504454;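 active = response above a set limit, near 3 SD of response in nonfluorescent compounds, cut at about 42% in these data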;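 also: stock transfer was 100 nL into about 11 µL; a reference agonist was the positive control; negative values mostly stem from fluorescent compounds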
T cruzi inh: blocks replication of Trypanosoma cruzi | T. cruzi beta-gal in NIH3T3, luminescence, 90 h | inhibition, % (concentration not given with the values) | hit rate 1.4% among 300,000;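 active = mean inhibition across valid replicates above about 55%, limit read from the data; inconclusive = mean below that limit but half or more replicates reach it; inactive = mean below it, under half of replicates reach it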;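 also: signal also drops with host cell toxicity which is not excluded here; 0% = plate median of DMSO wells and 100% = zero luminescence signal; higher percent means less beta-gal luminescence so fewer parasites; stock transfer was 50 nL into about 50 µL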
UCH37 inh: human UCH37 deubiquitinating enzyme inhibition. hit rate 0.33% among 330,000. purified proteasome/UCH37, Ub-AMC cleavage fluorescence. inhibition, % (concentration not given with the values). Q9Y5K5. AID 588478;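 active = mean of two replicates above 20%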;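 also: 0% = compound-free wells with enzyme and 100% = wells lacking proteasome; stock transfer was 100 nL into about 20 µL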
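Material: human UCH37 enzyme supplied as purified proteasome complex. Measure: % inhibition of Ub-AMC cleavage fluorescence. Medium: pH 7.4 Tris-HCl (50 mM) with ovalbumin, ATP-MgCl2, DTT. Times: 30 min preincubation with enzyme, 25 min cleavage at room temperature. Detection: AMC fluorescence intensity at 355/460 nm.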
Bfl-1 A1 inh: inhibitors of the anti-apoptotic protein A1, read as caspase activation; MEF A1-2A-BIM cells, Caspase-Glo 3/7 luminescence, 3 h; percent of clofoctol response, vehicle zero; caspase activation, % (concentration not given with the values); hit rate 0.066% among 330,000;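 active = over half of replicate activation scores above 10%, or exactly half above 10 with the replicate mean above 10; inconclusive = replicate mean below 10 yet half the replicates above 10; inactive = over half of replicates below 10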;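 also: wells of about 30 µL received 50 nL stock; many hits fall short of the cut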
RanGTP-Imp inh: inhibitors of RanGTP-importin-beta interaction, primary screen, biochemical, FRET, CFP-Ran, YFP-importin-beta, homogeneous; cell-free CFP-Ran/YFP-importin-beta FRET ratio; inhibition, % (no concentration beside the values); hit rate 1.1% among 300,000; AID 2216;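 active = most replicates above 15%; inconclusive = exactly half above 15%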;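 also: 0% = DMSO wells and 100% = Ran loaded with GDP instead of GTP; wells of about 40 µL received 100 nL stock; the first replicate is given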
Beta apoptosis: blocks beta cell apoptosis. protection from apoptosis, % (concentration not given with the values). AID 435005. hit rate 0.8% among 300,000. INS-1E cytokine-induced death, ATP luminescence, 48 h; percent of positive-control rescue, neutral wells zero;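 active = all replicates at 75% or more, or half of them and the mean; inconclusive = half reach 75% but not the mean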;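 also: 0% = cytokine-treated negative control wells and 100% = positive control rescue; higher means more ATP so stronger rescue from cytokine killing; wells of about 40 µL received 100 nL stock; the first replicate is given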
LANA-H2A inh: blocks KSHV LANA binding to histone H2A/H2B. cell-free LANA-H2A/H2B peptide, fluorescence polarization. inhibition, % (concentration not given with the values). hit rate 0.6% among 320,000; in the data active = inhibition mostly above about 10%, no sharp cut-off; inactive = mostly below about 6.7%;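 also: stock transfer was 7.5 nL into about 10 µL; 0% = median of vehicle wells and 100% = median of positive control wells; one replicate is shown; the record names a cut of 25% in any replicate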
Target sequence (Q9QR71 whole entry, looked up): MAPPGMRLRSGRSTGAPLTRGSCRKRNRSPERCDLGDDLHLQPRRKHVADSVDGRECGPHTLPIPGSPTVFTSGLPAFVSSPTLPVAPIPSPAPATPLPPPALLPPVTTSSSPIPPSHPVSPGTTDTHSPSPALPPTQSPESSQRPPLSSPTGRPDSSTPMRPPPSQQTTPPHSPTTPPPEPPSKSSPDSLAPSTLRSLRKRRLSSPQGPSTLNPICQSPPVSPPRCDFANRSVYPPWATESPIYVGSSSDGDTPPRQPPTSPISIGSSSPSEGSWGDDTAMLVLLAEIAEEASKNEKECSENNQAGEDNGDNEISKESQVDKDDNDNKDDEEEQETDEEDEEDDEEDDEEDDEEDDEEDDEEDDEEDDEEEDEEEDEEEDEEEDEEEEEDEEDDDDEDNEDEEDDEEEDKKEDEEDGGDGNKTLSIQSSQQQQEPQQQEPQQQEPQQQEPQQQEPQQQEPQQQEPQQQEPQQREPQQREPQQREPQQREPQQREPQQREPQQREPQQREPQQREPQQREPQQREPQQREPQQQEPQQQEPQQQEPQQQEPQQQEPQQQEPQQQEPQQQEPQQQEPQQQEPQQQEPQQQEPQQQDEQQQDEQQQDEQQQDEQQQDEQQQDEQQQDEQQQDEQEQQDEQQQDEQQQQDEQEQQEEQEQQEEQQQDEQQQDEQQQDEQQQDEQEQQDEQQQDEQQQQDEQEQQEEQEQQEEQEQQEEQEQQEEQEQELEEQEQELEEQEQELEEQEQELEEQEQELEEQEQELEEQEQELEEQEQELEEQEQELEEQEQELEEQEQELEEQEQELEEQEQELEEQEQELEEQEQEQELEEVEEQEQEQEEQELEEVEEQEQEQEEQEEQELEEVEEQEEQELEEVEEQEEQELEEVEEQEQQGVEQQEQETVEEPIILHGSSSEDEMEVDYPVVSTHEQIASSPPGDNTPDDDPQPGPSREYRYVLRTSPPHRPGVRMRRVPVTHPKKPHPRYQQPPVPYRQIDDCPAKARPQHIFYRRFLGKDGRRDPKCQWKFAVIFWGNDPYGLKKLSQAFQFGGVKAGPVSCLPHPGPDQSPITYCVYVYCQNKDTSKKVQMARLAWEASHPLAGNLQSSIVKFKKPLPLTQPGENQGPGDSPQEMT
Active calls of the source: *; ? = inconclusive; · = no result given. No enrichment for hits (roughly 4.3% active in at least one column).

SMILES	Calb FLC	B2AR ag	T cruzi inh	UCH37 inh	Bfl-1 A1 inh	RanGTP-Imp inh	Beta apoptosis	LANA-H2A inh
COc1cc(/C=C2/S/C(=N/S(=O)(=O)Cc3ccccc3)NC2=O)c([N+](=O)[O-])cc1OC	3	-13	-8	10	-0.9	-1.3	3	-3.8
Cc1ccc(C(=O)N/C(=C\c2sccc2C)C(=O)NCc2ccco2)cc1	-2	29	9	4.9	0.1	4.2	4	-4.4
CCCCC(=O)N1C/C=C\C(c2ccc(OC)cc2)N(Cc2ccc(F)cc2)C(=O)C1 (configuration not stated)	-5	-5	-4	-1.2	0.2	-2.4	0	9.6
Cn1nc(-c2ccccc2)c2cc([N+](=O)[O-])ccc21	4	-6	-7	-3.6	0.2	2.5	-1	-9.7
CCN(C(=O)COC(=O)C1CCN(S(=O)(=O)c2ccc(C)c(C)c2)CC1)C1CCCCC1	·	6	·	-0.5	-0.1	·	-5	-2.3
CCCc1nc2c(sc3nc4c(cc32)COC(C)(C)C4)c(=O)n1CCN(CC)CC	0	-1	19	-4.4	0.8	1.4	2	-2.2
CCc1ccc(NC(=O)C(=O)NNC(=O)c2cccs2)cc1	6	3	-2	4.6	-7.0	-0.3	-2	-3.4
Cn1cccc1/C=C1\SC(=S)N(NC(=O)c2ccc(F)cc2)C1=O	-28	9	·	9.7	-0.2	5.9	-1	0.0
CN(C)c1nc(C#N)nc(N(C)C)n1	-12	7	-16	5.6	-0.1	3.4	-4	-5.5
Cc1cc(C)c2oc(-c3ccc(C)c(NC(=S)NC(=O)/C=C/c4ccco4)c3)nc2c1	32	4	-15	12	-0.3	3.0	-6	-0.9
Cc1cccc(NC(=O)c2cc(S(=O)(=O)N3CCOCC3)cn2C)c1C	3	-4	-6	6.4	·	-0.4	-3	6.8
Cc1c(C(=O)N2CCN(C)CC2)oc2c1C(=O)CC(C)(C)C2	30	-1	6	1.6	1.2	0.0	-1	-1.5
O=C1CC(c2ccco2)CC(O)=C1C=NCC1NCCc2ccccc21 (configuration not stated)	-10	4	7	4.5	-0.1	-3.0	9	1.7
CCOC(=O)CNC(=O)CSc1nnc(SCC(=O)NCC(=O)OCC)s1	2	-2	-16	0.8	-0.9	-3.7	-3	0.7
CC1(c2ccccc2)O[C@@H]2C[C@H]3[C@@H]4CCC5=CC(=O)C=C[C@]5(C)[C@@]4(F)[C@@H](O)C[C@]3(C)[C@]2(C(=O)CO)O1 (some centres not stated)	-7	4	41	3.9	0.3	7.2	-6	0.9
COc1cc(/C=N/NC(=O)C(=O)NCc2ccco2)cc(Br)c1O	14	-1	1	·	1.0	?	-3	8.3
COc1ccccc1NC(=O)NC1(C(=O)N2CCC(C)CC2)CCCCC1	1	3	-5	0.2	-0.6	-0.3	2	-1.3
Cc1ccc(C(=O)N2CCN(c3ncccn3)CC2)cc1NC1=NC2CS(=O)(=O)CC2S1 (configuration not stated)	-2	-5	-4	3.1	0.7	2.1	4	-2.6
CCOC(=O)C1CCCN(Cc2cc(Br)c(OC)cc2OC)C1 (configuration not stated)	-1	7	46	5.1	-0.1	-5.9	-17	-0.1
Cc1ccc(NC(=O)C2CCN(S(=O)(=O)c3ccc4c(c3)CC(C)N4C(=O)C3CCC3)CC2)nc1 (configuration not stated)	-19	-6	11	2.1	0.7	-0.5	11	3.3
Cc1cc(S(=O)(=O)N2CCN(C(=O)CCC(=O)N3CCOCC3)CC2)ccc1Br	30	-1	0	2.8	1.4	2.6	-3	7.3
COCCCNC(=O)c1cc2c(-c3ccc(Cl)cc3)nn(C)c2s1	6	1	3	-27	-0.4	3.8	3	0.8
CCOC(=O)C(NC(=O)c1ccccc1Cl)(Nc1ccc(C)c(C)c1)C(F)(F)F (configuration not stated)	-21	0	2	-0.2	-0.6	-2.8	-2	-1.5
O=C(O)c1cc(-c2ccccc2Cl)n(-c2ccc(F)cc2)n1	1	-11	-7	5.4	2.5	-2.5	-3	-1.5
Cc1ccc(C)c(N(CC(=O)NC2CCCC2)C(=O)CNC(=O)c2cccs2)c1	5	-9	-8	3.4	-0.2	-2.7	-3	-2.2
C=CCNc1ncnc2c1cnn2-c1cccc(C)c1	2	4	-13	4.9	-2.4	?	-5	-4.9
O=C(Cn1cncn1)NCc1ccc(Cl)cc1	3	0	20	2.2	-0.5	?	-18	1.9
CCS(=O)(=O)c1c([N+](=O)[O-])ncn1C	1	16	-18	4.6	0.7	1.8	-5	-16
COc1ccccc1NC(=O)Nc1ccc2c(c1)nc(C)n2C	-16	-4	·	0.7	-7.0	·	13	1.7
COc1ccc(NC(=O)N(C)C[C@H]2Oc3ccc(NS(=O)(=O)c4cccs4)cc3C(=O)N([C@H](C)CO)C[C@@H]2C)cc1	·	1	·	3.0	0.8	·	-2	-0.5
Cc1ccc(C(=O)NCC(=O)NCC(=O)OCC(=O)c2ccc(F)cc2)cc1	-7	16	-11	-0.1	0.7	1.0	-8	·
CCOC(=O)C(NC(=O)c1cccc(Cl)c1)(Nc1sc2c(c1C(N)=O)CCC2)C(F)(F)F (configuration not stated)	0	0	4	2.0	-0.2	1.8	0	2.6
CCc1nnc(NC(=O)Cc2ccc(Br)cc2)s1	1	-2	4	0.2	0.5	-2.8	-3	-4.0
Cc1oc(-c2ccccc2Cl)nc1CS(=O)CC(=O)NCc1ccc(Cl)cc1 (configuration not stated)	-3	-3	22	1.5	0.3	-1.4	-14	-1.3
C=C1C(=O)O[C@@H]2C[C@@H](C)[C@@H]3C=CC(=O)[C@@]3(C)[C@@H](OC(C)=O)[C@H]12	-2	·	?	1.4	3.3	3.3	136*	6.9
Cc1ccc(C)c(OCCN2C(=O)NC3(CCc4ccccc4C3)C2=O)c1 (configuration not stated)	-1	9	-1	1.5	0.8	0.6	2	5.3
N#Cc1c(-c2ccccc2)cc2nc3ccccc3n2c1N	-10	-20	3	-393	0.0	17*	9	-5.1
COc1ccc(-c2[nH]nc(-c3ccccc3)c2-c2nc3ccccc3[nH]2)cc1	70	2	1	3.3	0.2	3.9	·	0.7
CC(C)(C)c1nc2ccccc2c2nnc(SCC(=O)NCc3ccco3)n12	14	-12	15	1.5	0.0	2.4	-6	-2.7
O=[N+]([O-])c1ccccc1OCCCN1CCc2ccccc2C1	4	-4	18	2.1	0.6	0.6	·	-3.2
Cc1ccc(CN2C3=NCCN3c3ccccc32)cc1	-10	-6	14	2.1	-0.4	1.1	4	-0.8
CSc1ccc(CN(C)C(=O)c2cccc(S(=O)(=O)N3CCN(Cc4ccccc4)CC3)c2)cc1	-4	11	15	3.1	0.5	·	55	7.2
COc1ccc([N+](=O)[O-])cc1NC1C2CC3CC(C2)CC1C3 (configuration not stated)	0	7	8	5.3	2.2	2.1	-1	1.6
CCCC(=O)n1nc(-c2cccnc2)nc1NCc1ccc(OC)cc1	3	-13	-18	-0.5	·	4.8	·	·
CNC(=O)c1cc(S(=O)(=O)N2CC(C)OC(C)C2)ccc1N1CCOCC1 (configuration not stated)	-5	-3	-4	3.9	·	-1.4	·	·
Cc1cc(Br)ccc1NC(=O)CNC(=O)CNc1cccc([N+](=O)[O-])c1	·	8	·	2.3	0.2	·	2	-1.8
Nc1cc(Cl)ccc1C(=O)OCC(=O)NCC1CCCO1 (configuration not stated)	·	0	·	-253	-0.6	·	1	3.2
Cc1ccc(/C=C(\C#N)C(=O)Nc2cccc(C)n2)cc1	4	4	-11	-8.1	0.1	-3.5	-5	7.6
CC(C)NC(=O)CCCc1ccccc1	-18	6	-11	3.3	0.9	-2.6	·	4.8
O=C(Nc1ncccc1O)c1cccc(S(=O)(=O)N2CCCC2)c1	-3	3	-14	3.0	-0.5	2.4	-7	-1.8
Cc1cccc(NC(=O)COC(=O)c2ccc3nc(C)c(C)nc3c2)c1	·	15	·	1.7	?	·	-3	6.0
COc1ccc([C@H]2[C@H](C(=O)C(C)(C)C)N3N=Cc4ccccc4C3[C@]23N=C(c2ccccc2)OC3=O)cc1 (some centres not stated)	12	-13	4	-3.7	0.0	1.1	4	-5.2
CCN(CC)CCCNC(=O)c1cc(-c2ccc(O)cc2)on1	-1	-7	6	3.8	0.4	-0.1	-8	-0.2
Cc1ccc2oc(=O)c(/C=C(\O)c3ccccc3)nc2c1	-15	3	-4	7.4	-1.0	-1.3	0	-1.4
O=C1c2ccccc2C(=O)N1CC1=CCS(=O)(=O)C1	-14	4	2	-0.4	0.5	2.6	-7	-1.9
CCOC(=O)C(NC(=O)c1ccc(F)cc1)(Nc1sc2c(c1C(N)=O)CCC2)C(F)(F)F (configuration not stated)	-3	3	21	4.2	0.7	-2.4	4	8.2
O=C(CN1C(=O)C2C3C=CC(C3)C2C1=O)OCC(=O)c1ccc(Cl)c([N+](=O)[O-])c1 (configuration not stated)	1	-3	-23	1.9	1.0	-13	-1	15
COCC(=O)N(C)CC1CCCN(CCc2ccccc2OC)C1 (configuration not stated)	2	-1	-4	2.4	0.8	0.5	4	-130
CC(/C=N\NC(=O)CN1CCN(S(=O)(=O)c2ccc(C)cc2)CC1)=C\c1ccccc1	5	2	-7	·	0.5	-2.1	-3	-2.3
Cn1nnc(NC(=S)NC(=O)c2cccc3c(Cl)cccc23)n1	6	0	-56	·	-0.7	-1.6	0	0.2
Continuation.
SMILES	Calb FLC	B2AR ag	T cruzi inh	UCH37 inh	Bfl-1 A1 inh	RanGTP-Imp inh	Beta apoptosis	LANA-H2A inh
Cc1cccc(N2CC(O)=C(c3nc4ccccc4n3C)C2=N)c1	1	5	-4	1.3	-0.1	0.4	·	2.9
COc1cccc(S(=O)(=O)Nc2ccc3sc(C)nc3c2)c1	44	3	0	1.1	-0.1	-2.9	-2	-6.4
Cc1cccc(OCC(=O)Nc2ccccc2N2CCN(C)CC2)c1	-8	-3	3	0.2	0.7	-0.7	·	-3.5
O=S(=O)(/C=C/c1ccccc1)N1CCOCC1	2	-6	9	1.2	0.4	-2.2	-7	-0.9
O=C(O)CCc1nn2c3ccccc3n(CC(=O)c3cccs3)c2nc1=O	-2	-13	-8	-346	-0.1	-1.1	1	4.3
COc1ccccc1CNC(=O)c1ccc2nc3[nH]c4ccccc4c3nc2c1	-1	8	25	-2.2	-0.5	-0.1	36	-1.2
CCNC(=O)c1c(O)c2cccc3c2n(c1=O)CC3	?	-5	-5	-6.7	-0.1	0.6	-8	-1.7
Cc1cc(C)n(-c2cc(N3CCOCC3)nc(-c3ccccc3)n2)n1	-46	-1	44	6.2	0.3	1.4	-4	6.7
Cc1ccc2nc(-c3ccc(S(=O)(=O)N4CCCCC4)cc3)cn2c1	-17	-1	29	-22	-0.1	-3.0	4	0.5
CC(C)(C)c1nnc(NS(=O)(=O)c2ccc([N+](=O)[O-])cc2)s1	-1	-4	-4	3.7	-2.0	-0.5	6	3.5
Cc1cccc(C(=O)Nc2ccc3c(c2)nc(C)n3C)c1	-4	-5	-15	1.2	-2.3	-4.4	-1	-4.3
O=C(c1cccc([N+](=O)[O-])c1)N1CCN(c2n[nH]c(=O)[nH]c2=O)CC1	-2	-2	-7	4.0	0.3	6.0	-7	4.3
